Compound activity as filed in PubChem.
VDR inh = Inhibitors of the vitamin D receptor (VDR): qHTS; VDR-SRC2-3 peptide fluorescence polarization, 2 h; Potency, µM, without a hit: max response, negative = inhibition, hits mostly inhibitors; 400,000 compounds, 0.93% hits; active means well fitted inhibition curve with a large enough effect; inconclusive means small, poorly fitted or top-dose-only effect, or another doubt; inactive means no such curve, though single readings can be large or run the other way; further: series mostly up to about 120 µM
Target sequence (P11473 whole entry, looked up): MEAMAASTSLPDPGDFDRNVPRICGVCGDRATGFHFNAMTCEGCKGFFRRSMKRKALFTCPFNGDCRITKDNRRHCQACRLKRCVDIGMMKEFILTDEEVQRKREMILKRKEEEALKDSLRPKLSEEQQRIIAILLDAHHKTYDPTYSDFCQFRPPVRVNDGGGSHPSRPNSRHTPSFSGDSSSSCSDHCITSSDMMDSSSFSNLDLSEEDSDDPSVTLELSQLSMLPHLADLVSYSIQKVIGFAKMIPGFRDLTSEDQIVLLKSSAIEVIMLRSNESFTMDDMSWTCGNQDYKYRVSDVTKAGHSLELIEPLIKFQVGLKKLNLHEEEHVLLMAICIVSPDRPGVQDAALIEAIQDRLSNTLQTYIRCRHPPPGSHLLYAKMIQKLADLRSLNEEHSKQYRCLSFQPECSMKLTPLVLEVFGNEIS
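Inhibition of the VDR/SRC2-3 peptide interaction is quantified by fluorescence polarization. Compounds (23 nl, pintool) incubate with the reagents for 2 hours at ambient room temperature.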
* marks the source's active call; other numbers are inactive results; ? = inconclusive; & = joins results of further samples. On the % scale 0 is the no-effect control and ±100 the full control effect; potency means the concentration at half of the fitted maximal effect.

no.	smiles	VDR inh
1	Cc1cc(N2CCC(C)CC2)n2ncc(-c3ccccc3)c2n1	7%
2	NC(Cc1cccc(-c2ccccc2CP(=O)(O)O)c1)C(=O)O (configuration not stated)	0%
3	CCOC(=O)c1c(-c2ccccc2)csc1NC(=O)c1cc(-c2ccc(Cl)cc2)on1	?
4	O=C1CCCN1CC(=O)N1CCCC(Nc2cccc(F)c2)C1 (configuration not stated)	-1%
5	Cc1ccc(-n2c(=O)c3c(cnn3C)n(Cc3ccc(Cl)cc3)c2=O)cc1	89µM*
6	O=C1C(C2=NC(c3ccccn3)C3C(=O)N(c4ccccc4)C(=O)C23)=C(O)c2ccccc21 (configuration not stated)	-1%
7	COC(=O)c1c(C)[nH]c(C(=O)C(C)Sc2nnc(-c3cc(OC)c(OC)c(OC)c3)o2)c1C (configuration not stated)	-13%
8	COCCN(C(=O)CSc1ccc2c(c1)OCCO2)c1c(N)n(CC(C)C)c(=O)[nH]c1=O	-4%
9	Cc1n[nH]c(=O)nc1NCC1CCCO1 (configuration not stated)	-10%
10	CCN(c1ccccc1)C(CNS(=O)(=O)c1ccccc1)c1ccccc1 (configuration not stated)	-4%
11	CCOC(=O)c1sc(=S)n(-c2cccc(OC)c2)c1N	?
12	CN(CC(O)COc1ccccc1F)C1CCCCC1 (configuration not stated)	19%
13	O=Cc1c[nH]c2cccc(OCc3ccccc3)c12	-8%
14	CC(NC(=O)CCCCCN1C(=O)c2ccccc2C1=O)c1ccc2c(c1)CCCC2 (configuration not stated)	-5%
15	Cc1onc(-c2ccccc2)c1C(=O)N(C)CCc1ccccn1	24%
16	COc1cc(C(CC(=O)NCc2ccc(F)cc2)N2Cc3ccccc3C2=O)cc(OC)c1OC (configuration not stated)	9%
17	CN1C=CC(=CC=C2C=CC(=O)C=C2)C=C1	5%
18	O=C(CNC(=O)Cn1ccc2ccccc2c1=O)NCCCN1CCN(c2cccc(Cl)c2)CC1	-13%
19	COc1cccc(C2C3=C(CC(C)(C)CC3=O)Nc3n[nH]c(C)c32)c1 (configuration not stated)	-2%
20	COc1ccc(-c2cn3c(n2)sc2cc(C(=O)NC4CCCc5ccccc54)ccc23)cc1 (configuration not stated)	8%
21	C=CCn1c(SCC(=O)Nc2ccc(-c3nc4ccc(C)cc4s3)cc2)nnc1-c1ccncc1	?
22	COc1ccc(Nc2nc(Nc3ccc(OC)cc3OC)nc(N3CCOCC3)n2)c(OC)c1	-1%
23	COc1ccc(C2C(=O)N(C3CCCCC3)CC(=O)N2Cc2ccccc2Cl)cc1OC (configuration not stated)	5%
24	O=C(c1ccco1)N1CCC2(CC1)CCN(c1ncccn1)CC2	?
25	Cc1cccc(NC(=S)NCCN2CCOCC2)c1	-3%

no.	smiles	VDR inh
26	N#Cc1c(NC(=O)C2CC(c3ccccc3Cl)=NO2)sc2c1CCC2 (configuration not stated)	12%
27	CCCN1C(=O)c2[nH]nc(-c3ccccc3O)c2C1c1ccc(OCc2ccccc2)c(OCC)c1 (configuration not stated)	5%
28	COc1ccccc1N1C(=O)C(Cl)=C(N2CCCC2)C1=O	-9%
29	O=C(O)c1ccccc1-n1c2ccccc2c2ccccc21	-17%
30	Cc1c(C(=O)Nc2ccc(F)cc2)c2ccccn2c1CCc1ccncc1	7%
31	CC1CC(C)CN(Cc2nc(N)nc(Nc3ccccc3)n2)C1 (configuration not stated)	9%
32	CCOC(=O)c1cnc(N2CCN(c3ccc(OC)cc3)CC2)c2ccccc12	10%
33	CNC(=O)C1CCC(Cn2c(=O)c3sccc3n(CC(=O)NCc3cccc(OC)c3)c2=O)CC1 (configuration not stated)	-1%
34	Nc1ccccc1C#CCCCCO	?
35	CCOC(=O)c1c(NC(=O)C2CCCCC2C(=O)O)sc2c1CCCCC2 (configuration not stated)	-13%
36	O=C(CNC(=O)N1CC(=O)Nc2ccccc21)NCCc1ccc(Cl)cc1	-10%
37	Cc1cscn1	13%
38	O=C(CSc1nnc(Cn2c(=O)sc3ccccc32)n1-c1ccccc1)NCC1CCCO1 (configuration not stated)	-5%
39	CCCCNCCCOc1cccc(Cl)c1Cl	15%
40	O=[N+]([O-])c1ccc(NCCOc2ccccc2Cl)nc1	-9%
41	CCCn1ncc(CN2CCC(Cc3cccc(F)c3)(C(=O)OCC)CC2)c1C	12%
42	O=c1c2sc3ccccc3c2[nH]c(=S)n1CCN1CCOCC1	6%
43	CCCC(=O)Nc1ccc2c(c1)nc(CCNC(=O)c1ccccc1)n2C	0%
44	O=C(NCCN=C1NS(=O)(=O)c2ccccc21)c1ccncc1	-4%
45	O=C(Cc1ccccc1)NNC(=S)NC(=O)c1cccnc1	0%
46	CCN(c1ccccc1)S(=O)(=O)c1ccc(Cl)c(NC(=O)CN(C)C2CCN(C)CC2)c1	13%
47	COc1ccc(NC(=O)C(c2ccc(Cl)cc2)C(C)C)cn1 (configuration not stated)	-9%
48	COc1cccc(-c2csc(NC3OC(=O)c4c3ccc(OC)c4OC)n2)c1 (configuration not stated)	-13%
49	O=C(CCc1ccc(Oc2cc([N+](=O)[O-])cc([N+](=O)[O-])c2)cc1)Nc1cccc(Cl)c1	-8%
50	CN1C(=O)N(C)C2C1N(CN1CCCCC1)C(=O)N2CN1CCCCC1 (configuration not stated)	-6%

no.	smiles	VDR inh
51	COc1cccc2cc(-c3cc(=O)oc4ccc(OCC(C)=O)cc34)oc12	-11%
52	CCOc1cccc(C(=O)Nc2ccc(S(=O)(=O)Nc3cc(C)on3)cc2)c1	-24%
53	CCOC(=O)N1CCc2c(sc3c2c(=O)n(-c2ccc(F)cc2)c(=O)n3CC(=O)c2ccc(Cl)cc2)C1	-5%
54	COc1ccccc1N1CCN(C(=O)c2oc3ccc(F)cc3c2C)CC1	3%
55	CCOC(=O)NC(=O)CSc1nc2ccc([N+](=O)[O-])cc2[nH]1	-5%
56	CCc1c(C)n([O-])c2c([n+]1=O)CCCCC2	-5%
57	COc1ccc(-n2nc([N+](=O)[O-])c(=NCCc3ccc(Cl)cc3)n2O)cc1	-12%
58	COc1ccc(NC(=O)NNC(=O)COc2ccc3ccccc3c2)cc1OC	-13%
59	COCCCNc1nc2c([nH]1)c(=O)[nH]c(=O)n2C	4%
60	O=C(NCc1nc2ccccc2[nH]1)c1c(F)cccc1F	0%
61	CCCN1C(=O)/C(=C\c2ccncc2)SC1=Nc1ccccc1	-21%
62	COc1ccc(-c2nnc(SCC(=O)Nc3cc(OC)ccc3OC)nc2-c2ccc(OC)cc2)cc1	-7%
63	[Li+]	-1%
64	CCCNC(=O)CNC(=S)N(Cc1ccccc1F)C1CCCCC1	-21%
65	O=C(CCCN1C(=O)/C(=C/c2ccc(F)cc2)SC1=S)NC1CCS(=O)(=O)C1 (configuration not stated)	-14%
66	CCN(CC)C1CCN(c2nc3nonc3nc2NCCOC)C1 (configuration not stated)	-1%
67	O=C(CSc1nccn1Cc1ccco1)Nc1cccc(F)c1	14%&15%
68	COc1ccc(-n2c(SCC(=O)NCc3ccco3)nc3sc4c(c3c2=O)CCN(C)C4)cc1	23%
69	O=C(CC12CC3CC(CC(Br)(C3)C1)C2)NC1CCCC1	0%
70	CCc1nnc(NC(=O)Cc2ccc(OCc3c(C)noc3C)cc2)s1	6%
71	COc1cccc(NC(=O)CNC(=O)c2ccc([N+](=O)[O-])cc2)c1	15%
72	CCS(=O)(=O)N1CCN(C(=O)c2cc(OC)cc(OC)c2)CC1	-8%
73	CCCN(S(=O)(=O)c1ccccc1F)S(=O)(=O)c1ccccc1Br	17%
74	CN(Cc1ccco1)C(=O)Cn1nc(-c2ccc(Cl)cc2)ccc1=O	8%
75	O=C(O)c1cc(S(=O)(=O)NCC2CCCO2)ccc1Cl (configuration not stated)	19%

4 of these compounds, set out differently.
[70] CCc1nnc(NC(=O)Cc2ccc(OCc3c(C)noc3C)cc2)s1
  VDR inh = 6%

[71] COc1cccc(NC(=O)CNC(=O)c2ccc([N+](=O)[O-])cc2)c1
  VDR inh = 15%

[72] CCS(=O)(=O)N1CCN(C(=O)c2cc(OC)cc(OC)c2)CC1
  VDR inh = -8%

[73] CCCN(S(=O)(=O)c1ccccc1F)S(=O)(=O)c1ccccc1Br
  VDR inh = 17%

Continuation:
no.	smiles	VDR inh
76	CN1CCN(C2=NC(=O)/C(=C/c3cn[nH]c3-c3ccccc3)S2)CC1	-15%
77	Cc1c(Cl)cccc1NC(=O)CSc1nnc(C)n1-c1ccccc1	12%
78	COc1ccc(C2=NOC(C(=O)NCc3ccco3)C2)cc1OC (configuration not stated)	-15%
79	Cc1cc(C)cc(NC(=O)CCn2ccnc2C)c1	17%
80	COc1ccc(S(=O)(=O)N2CCCC(C(=O)NCCc3ccccc3)C2)cc1 (configuration not stated)	12%
81	CN(C)S(=O)(=O)c1cccc(COC(=O)C2=COCCO2)c1	6%
82	On1c(-c2ccccc2)nc2ccc(Cl)cc21	-10%
83	CC(C)CNC(=O)CSc1nc(-c2cccs2)cc(C(F)(F)F)n1	5%
84	N#CCC(=O)Nc1ccc(C(=O)OCC(=O)NNC(=O)c2ccc(Cl)cc2)cc1	24%
85	O=C(NCCNC(=O)c1ccc(Cl)cc1Cl)c1ccco1	0%
86	CC(=O)N=c1nc(-c2ccccc2)n(-c2ccccc2)s1	-21%
87	CCC(=O)N(Cc1ccccc1)c1ccccn1	6%
88	O=C(CSc1nc2ccccc2c(=O)n1-c1ccccc1Cl)NC1CCS(=O)(=O)C1 (configuration not stated)	-3%
89	Cc1ccc(C(=O)NCc2ccccc2F)cc1S(=O)(=O)N1CCCC1	-18%
90	CN(C)/C=C/C(=O)/C=C/c1ccc(Cl)cc1Cl	?
91	CC(C)CNC(=O)c1noc2c1CCCC2	-12%
92	CSc1nc(N(C)NC(=O)c2ccccc2)c2ccccc2n1	14%
93	O=C(CCCN1C(=O)/C(=C/c2cccs2)SC1=S)Nc1cccc(C(=O)O)c1	-17%
94	CC(=O)c1sc(NC(=O)C2COc3ccccc3O2)nc1C (configuration not stated)	3%
95	CC(C)(C)C(=O)OC/C(N)=N/OC(=O)c1ccccc1	8%
96	NS(=O)(=O)c1ccc(NC(=O)CSc2nnc(COc3ccccc3Cl)n2C2CC2)cc1	11%
97	CCCCCc1ccc(C2=NNC(=O)CC2)cc1	10%
98	C=CCNC(=O)c1cccc(NS(=O)(=O)c2ccc(Cl)cc2)c1	-3%
99	CCOc1cccc2c1OC1(C)CC2NC(=O)N1c1ccc(OC)cc1 (configuration not stated)	-11%
100	CCOC(=O)c1ccc(N2C(=O)CC(NC3CCN(C(=O)c4ccc(F)cc4)CC3)C2=O)cc1 (configuration not stated)	10%

Fetched by structure from the entries so far, 3 records:
no.	smiles	VDR inh
94	CC(=O)c1sc(NC(=O)C2COc3ccccc3O2)nc1C (configuration not stated)	3%
96	NS(=O)(=O)c1ccc(NC(=O)CSc2nnc(COc3ccccc3Cl)n2C2CC2)cc1	11%
89	Cc1ccc(C(=O)NCc2ccccc2F)cc1S(=O)(=O)N1CCCC1	-18%

The results go on:
no.	smiles	VDR inh
101	Cc1nc(NCC2CCCO2)[nH]c(=O)c1CCC(C)C (configuration not stated)	-7%
102	Cc1ccc(OCC(=O)Nc2c(C(=O)c3ccccc3)oc3ccccc23)cc1C	?
103	Cc1oc(-c2ccccc2F)nc1CN1CCC(C(=O)NCCC2=CCCCC2)CC1	7%
104	COc1ccc(C(=O)N/N=C/c2sc(=O)n(Cc3cccc(C(=O)O)c3)c2Cl)cc1	-1%
105	Cc1noc(C)c1COc1ccc(C(=O)N2CCN(S(=O)(=O)c3ccc(Cl)cc3)CC2)cc1	-6%
106	CCCCN(C(=O)CSc1nnc2ccccn12)c1c(N)n(Cc2ccccc2)c(=O)[nH]c1=O	8%
107	O=C(CSCc1cnn(-c2ccccc2)c1-n1cccc1)NCc1ccc2c(c1)OCO2	7%
108	OC(CN1CCN(c2cccc(Cl)c2)CC1)c1ccccc1 (configuration not stated)	9%
109	Cc1cc(NC(=O)Nc2ccc(F)cc2F)n(C)n1	-2%
110	Cc1ccc(N2CCN(C(=O)C3CCC(=O)N(Cc4ccc(Cl)cc4)C3)CC2)c(C)c1 (configuration not stated)	-13%
111	Cc1ccc(S(=O)(=O)NCC(c2ccc3c(c2)OCO3)N2CCOCC2)cc1 (configuration not stated)	-9%
112	CN1C2=C(C#N)C(c3ccccc3)(C(F)(F)F)NC(=O)N2c2ccccc21 (configuration not stated)	11%
113	CN(C(=O)C1CCOC1)c1nnc(C2CCOC2)s1 (configuration not stated)	-1%
114	C=CCN=C1N[C@@H](c2cccc(C(F)(F)F)c2)C(C(=O)OC)=C(C)N1CC	-4%
115	COc1ccc(CN(CC(=O)NC2CCCC2)C(=O)CN2C(=O)COc3ccccc32)cc1	-4%
116	O=c1ccn(Cc2ccc(F)cc2)c2ccnc(C(F)(F)F)c12	-14%
117	Cc1ccc(-n2nnc(-c3ccnc4ccccc34)n2)cc1	8%
118	CCOC(=O)c1c(NC(=O)c2ccc(S(=O)(=O)N3CCOCC3)cc2)sc2c1CC(C)(C)NC2(C)C	-11%
119	CCC(C)[C@H](N)c1nnc(SCc2ccc(Cl)c(Cl)c2)o1 (some centres not stated)	2%

A second format for three compounds above:
36. O=C(CNC(=O)N1CC(=O)Nc2ccccc21)NCCc1ccc(Cl)cc1
- VDR inh: -10%
37. Cc1cscn1
- VDR inh: 13%
38. O=C(CSc1nnc(Cn2c(=O)sc3ccccc32)n1-c1ccccc1)NCC1CCCO1 (configuration not stated)
- VDR inh: -5%

Not all compounds are listed; count on the stated rates, not on these rows.
